# B2AR ag: human beta-2 adrenergic receptor agonism by FAP; AID 504454; Am2.2-beta2AR cells, FAP receptor internalization, flow cytometry; reference of the scale not given here; hit rate 0.43% among 340,000; response, % (test concentration not listed);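 active means response above a set limit, near 3 SD of response in nonfluorescent compounds, cut at about 42% in these data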;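 further: stock transfer was 100 nL into about 11 µL; a reference agonist was the positive control; negative values mostly stem from fluorescent compounds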
# Target sequence (P07550 whole entry, looked up): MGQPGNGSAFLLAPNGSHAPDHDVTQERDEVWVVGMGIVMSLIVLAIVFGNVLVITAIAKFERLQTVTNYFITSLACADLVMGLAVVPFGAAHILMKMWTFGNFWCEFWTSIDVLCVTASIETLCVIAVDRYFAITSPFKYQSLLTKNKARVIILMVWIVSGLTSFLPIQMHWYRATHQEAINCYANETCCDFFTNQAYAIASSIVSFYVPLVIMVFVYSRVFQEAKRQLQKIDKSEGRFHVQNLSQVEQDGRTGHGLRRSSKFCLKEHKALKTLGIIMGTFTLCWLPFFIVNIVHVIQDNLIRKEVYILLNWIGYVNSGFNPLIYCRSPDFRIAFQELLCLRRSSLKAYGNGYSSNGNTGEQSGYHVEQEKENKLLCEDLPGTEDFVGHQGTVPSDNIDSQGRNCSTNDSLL
# Bfl-1 A1 inh: inhibitors of the anti-apoptotic protein A1, read as caspase activation; MEF A1-2A-BIM cells, Caspase-Glo 3/7 luminescence, 3 h; percent of clofoctol response, vehicle zero; caspase activation, % (concentration not given with the values); hit rate 0.066% among 330,000;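 active means over half of replicate activation scores above 10%, or exactly half above 10 with the replicate mean above 10; inconclusive means replicate mean below 10 yet half the replicates above 10; inactive means over half of replicates below 10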;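 further: wells of about 30 µL received 50 nL stock; many hits fall short of the cut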
# Beta cell apopt: beta cell apoptosis inhibition. INS-1E cytokine-induced death, ATP luminescence, 48 h; percent of positive-control rescue, neutral wells zero. hit rate 0.8% among 300,000. protection from apoptosis, % (concentration not given with the values);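 active means all replicates at 75% or more, or half of them and the mean; inconclusive means half reach 75% but not the mean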;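 further: 0% = cytokine-treated negative control wells and 100% = positive control rescue; higher means more ATP so stronger rescue from cytokine killing; wells of about 40 µL received 100 nL stock; the first replicate is given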
# LANA-H2B inh: blocks KSHV LANA binding to histone H2A/H2B; hit rate 0.6% among 320,000; inhibition, % (concentration not given with the values); cell-free LANA-H2A/H2B peptide, fluorescence polarization; in the data active means inhibition mostly above about 10%, no sharp cut-off; inactive means mostly below about 6.7%;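 further: stock transfer was 7.5 nL into about 10 µL; 0% = median of vehicle wells and 100% = median of positive control wells; one replicate is shown; the record names a cut of 25% in any replicate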
# RanGTP-Imp inh: inhibitors of RanGTP-importin-beta interaction, primary screen, biochemical, FRET, CFP-Ran, YFP-importin-beta, homogeneous; cell-free CFP-Ran/YFP-importin-beta FRET ratio; inhibition, % (concentration not given with the values); hit rate 1.1% among 300,000;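 active means most replicates above 15%; inconclusive means exactly half above 15%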;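 further: 0% = DMSO wells and 100% = Ran loaded with GDP instead of GTP; wells of about 40 µL received 100 nL stock; the first replicate is given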
# Calb FLC: affects C. albicans growth with fluconazole. C. albicans CaCi-2 (fluconazole-resistant clinical isolate) + fluconazole, Alamar Blue growth, 48 h. growth inhibition, % (test concentration not listed). hit rate 0.57% among 300,000. AID 1979;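 active means most replicates above 75%; inconclusive means exactly half above 75%; inactive means most below 75%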;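 further: all wells also contain fluconazole at 8 µg/ml as a sub-toxic cotreatment; 0% = median of DMSO wells and 100% = median of geldanamycin control wells; wells of about 8 µL received 7.5 nL stock; the first replicate is given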
# UCH37 inh: inhibitors of human deubiquitinating enzyme UCH37; hit rate 0.33% among 330,000; Q9Y5K5; inhibition, % (concentration not given with the values); purified proteasome/UCH37, Ub-AMC cleavage fluorescence; AID 588478;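 active means mean of two replicates above 20%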;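 further: 0% = compound-free wells with enzyme and 100% = wells lacking proteasome; stock transfer was 100 nL into about 20 µL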
# Target sequence (Q9Y5K5 whole entry, looked up): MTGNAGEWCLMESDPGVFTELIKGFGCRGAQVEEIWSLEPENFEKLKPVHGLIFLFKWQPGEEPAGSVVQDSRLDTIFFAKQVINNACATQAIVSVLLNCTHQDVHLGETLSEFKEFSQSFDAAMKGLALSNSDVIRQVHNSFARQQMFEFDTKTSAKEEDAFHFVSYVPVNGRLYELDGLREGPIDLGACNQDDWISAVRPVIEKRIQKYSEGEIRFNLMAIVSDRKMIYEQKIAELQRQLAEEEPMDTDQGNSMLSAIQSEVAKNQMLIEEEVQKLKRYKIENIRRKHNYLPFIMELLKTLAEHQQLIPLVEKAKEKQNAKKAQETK
#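 Material: Human UCH37 enzyme supplied as purified proteasome complex | Schedule: 30 min preincubation with enzyme, 25 min cleavage at room temperature | Detection: AMC fluorescence 355/460 nm | Measure: % inhibition of Ub-AMC cleavage fluorescence | Controls: Wells without proteasome as full block, compound-free enzyme plus substrate as uninhibited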
# T cruzi repl: blocks replication of Trypanosoma cruzi; T. cruzi beta-gal in NIH3T3, luminescence, 90 h; hit rate 1.4% among 300,000; inhibition, % (concentration not given with the values);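 active means mean inhibition across valid replicates above about 55%, limit read from the data; inconclusive means mean below that limit but half or more replicates reach it; inactive means mean below it, under half of replicates reach it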;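 further: signal also drops with host cell toxicity which is not excluded here; 0% = plate median of DMSO wells and 100% = zero luminescence signal; higher percent means less beta-gal luminescence so fewer parasites; stock transfer was 50 nL into about 50 µL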
# * = called active by the depositor; ? = inconclusive; / = not tested or not shown.
SMILES,B2AR ag,Bfl-1 A1 inh,Beta cell apopt,LANA-H2B inh,RanGTP-Imp inh,Calb FLC,UCH37 inh,T cruzi repl
O=C(O)CCCCc1nc2ccccc2s1,7,-0.9,1,-4.7,-0.8,8,2.5,-12
COc1ccc(N2C(S)=C(C#N)C(=O)NC2c2ccco2)cc1 (stereo not given),6,-0.3,-11,-0.5,-2.0,10,6.2,-5
O=C(Nc1ccc2oc(-c3ccc(Cl)c(Cl)c3)nc2c1)c1ncn[nH]1,-3,1.2,31,1.5,-3.3,-1,-7.2,26
CCOC(=O)c1ccc(NC(=O)Cn2cnc(S(=O)(=O)N3CCCC3)c2)cc1,2,/,/,/,1.6,-4,1.6,0
O=C1COc2ccc(C(=O)COC(=O)CNC(=O)c3ccco3)cc2N1,5,-0.3,-6,-2.4,-4.6,-10,3.9,-19
O=c1nc2ccccc2c2n1CC(CN1CCN(c3ccccc3F)CC1)N2 (stereo not given),5,0.0,-3,-9.0,4.0,-3,-0.9,-6
O=C(O)c1ccc(/C=C2\SC(=Nc3ccccc3)N(c3ccccc3)C2=O)cc1,5,0.1,0,3.1,6.3,37,5.2,-9
COc1ccc(S(=O)(=O)N2CCC(n3cnc4ccccc43)CC2)cc1,-4,-0.1,-2,-4.5,2.0,-1,-1.3,4
CCN(C(=O)c1ccc(C(C)(C)C)cc1)c1nnc(Cn2nnc3ccccc32)s1,-15,-0.5,112*,-2.5,2.2,3,4.9,39
COc1ccccc1NS(=O)(=O)c1ccc(O)c(C(=O)OCC(=O)c2ccc(Cl)cc2Cl)c1,-7,-0.1,0,4.2,?,8,1.4,-7
Cn1nc(C(=O)Nc2nc(-c3ccc(F)cc3)cs2)ccc1=O,4,-0.6,6,-1.9,-1.3,2,-0.9,-5
CC1CCCN(CC(=O)Nc2cc(Cl)ccc2Oc2ccccc2)C1 (stereo not given),38,-0.1,3,-4.4,-1.5,7,1.3,35
C/C(=N\Nc1ccccn1)c1ccc2c(c1)OCO2,-18,-0.8,2,0.3,-0.8,-19,/,11
COc1cccc(NC(=O)Nc2nnc(Cc3ccc(F)cc3)s2)c1,-8,-1.4,-7,0.7,-4.6,5,0.4,-20
COC(=O)/C=c1\sc2ncnn2c1=O,5,0.1,-3,-2.2,-3.8,/,/,-9
Cc1ccc(S(=O)(=O)N2CCCC2C(=O)OCC(=O)Nc2ccc3c(c2)OCO3)cc1 (stereo not given),0,0.1,-4,0.9,1.2,-10,3.3,-4
Cc1ccc(CS(=O)Cc2ccc(C(=O)NCc3ccccc3Cl)o2)cc1 (stereo not given),-1,0.1,-2,-0.1,0.7,39,-0.8,2
C/C(=N\NC(=O)C(C)Oc1ccc([N+](=O)[O-])cc1)c1ccccn1 (stereo not given),12,-1.8,90*,-3.2,5.1,2,/,?
Cc1nc2ncnn2c(C)c1CCC(=O)N1CCN(Cc2ccccc2)CC1,2,1.7,0,-3.2,2.3,-15,-0.6,-7
CCN(CC)CCNC(=O)C(=O)NCC1OCCN1S(=O)(=O)c1ccc2c(c1)OCCO2 (stereo not given),1,-0.7,-2,-5.0,-1.1,-24,1.2,4
O=[N+]([O-])c1ccccc1OCCCN1CCOCC1,-2,1.6,-3,-2.2,-1.7,-4,-0.2,-13
CCOc1cc(/C=N/Nc2nncc(-c3ccccc3)n2)ccc1O,5,0.7,-3,-0.1,-1.3,47,/,0
Cc1csc(NC(=O)CSc2nnc(-c3ccccc3)o2)n1,5,-1.9,1,2.7,24,5,3.5,9
COc1ccccc1NC(=O)CCN1CCCCCC1,-13,0.0,-1,-4.0,-7.4,-4,3.8,-11
COc1ccc(N2CCN(C(=O)c3cccc(S(=O)(=O)N4CCOCC4)c3)CC2)cc1,-2,0.0,-5,0.7,/,/,1.7,/

# Remaining list, next part:
SMILES,B2AR ag,Bfl-1 A1 inh,Beta cell apopt,LANA-H2B inh,RanGTP-Imp inh,Calb FLC,UCH37 inh,T cruzi repl
CCN(CC)CCn1c(NC(=O)c2ccccc2O)nc2ccccc21,-3,-0.2,18,0.5,-1.4,4,-129,35
COc1cccc(CNS(=O)(=O)c2ccc3c(c2)N(C)CCO3)c1,1,1.8,0,-0.1,4.6,-14,2.6,-2
CC(C)c1nnc(SCC(=O)N2CCOCC2)n1C,6,1.1,1,-1.8,7.2,2,-0.8,0
CC1CC(=O)c2cnc(Nc3cccc(C(F)(F)F)c3)nc2C1 (stereo not given),4,-1.3,2,-1.1,/,/,-1.2,/
COc1ccc(C(=O)NNC2=CC(=O)CC(C)(C)C2)cc1,-1,1.2,1,-4.5,33*,-8,0.0,-12
COc1cccc2sc(=NC(=O)CS(=O)(=O)c3ccc(Cl)cc3)n(C)c12,8,0.0,/,1.2,5.9,99*,-9.7,60*
O=C(COC(=O)c1ccc([N+](=O)[O-])cc1Cl)NCc1ccco1,-2,0.3,-4,-3.1,/,/,3.7,/
COC(=O)c1ccc(N2CCS(=O)(=O)CC2)cc1,0,0.0,-12,-1.2,-0.6,6,-0.5,-4
O=C(CSc1nnnn1-c1cccnc1)Nc1cccc(Cl)c1,-15,0.9,-9,2.8,-1.8,18,-0.7,-10
COc1ccc(CCC(=O)NCCS(=O)(=O)N2CCN(c3ccc(F)cc3)CC2)cc1,1,0.1,-3,-0.7,13,9,2.6,-5
CCOC(=O)c1ccccc1N1C(=O)CSC1=S,-2,-0.1,2,-2.5,1.2,-3,1.5,0
Cc1cc(NC(=O)CSCC(=O)N(c2ccc(F)cc2)C(C(=O)NC2CCCCC2)c2ccc(O)c(O)c2)no1 (stereo not given),-6,0.6,0,0.5,3.5,?,-0.5,-11
CCCN1CN(Cc2ccco2)c2nc3ccccc3n2C1,-22,0.4,1,0.2,2.0,-12,-2.1,-6
Cc1cc(C)c(C)c(OCCCCN2CCCCC2)c1,9,-0.6,-3,-3.7,2.8,1,-0.4,10
O=C(NC1CCCCC1)c1ccc(Cn2cc(Cl)cn2)cc1,5,-0.5,/,0.7,-1.2,3,1.7,-7
Cc1ccc(NC(=O)CN2CCN(Cc3ccccc3)CC2)cc1F,-2,-1.0,1,3.9,1.0,-5,4.0,17
Cc1nc(-c2cccc(Br)c2)ccc1C(=O)O,-6,-7.2,1,/,7.5,-6,-0.3,2
Cc1ccc(OCc2nnc(SCC(=O)O)n2-c2ccccc2)cc1,-5,0.0,1,8.0,?,0,2.7,-2
O=C(NCCc1ccccc1)c1ccc(=O)oc1,-3,-0.5,0,-0.4,0.1,2,17,-2
COc1ccc(C(=O)Cc2cnn(-c3ccccc3)c2)c(O)c1,-5,-2.6,2,-0.3,17*,-8,-0.9,33
COc1cc(/C=N/NC(=O)c2ccc(COc3cc(C)ccc3C(C)C)cc2)cc(OC)c1O,-6,-0.5,28,8.1,0.8,0,/,21
O=C1CCCC2=C1C(c1ccc3c(c1)OCO3)c1c([nH]n(-c3ccccc3)c1=O)N2 (stereo not given),21,0.6,-2,-4.3,?,?,32*,-4
O=c1ccnc(SCCC(F)=C(F)F)[nH]1,-2,0.3,-5,5.1,2.2,3,1.6,-2
O=C(NNC(=O)c1cc2ccccc2cc1O)Nc1ccc(Br)cc1,-5,0.0,4,1.5,1.7,6,-74,-8
Cc1[nH][nH]c(=O)c1C(c1c(C)[nH][nH]c1=O)c1cn(Cc2ccc(F)cc2)c2ccccc12,10,-0.4,2,/,/,/,12,/

# (further entries)
SMILES,B2AR ag,Bfl-1 A1 inh,Beta cell apopt,LANA-H2B inh,RanGTP-Imp inh,Calb FLC,UCH37 inh,T cruzi repl
O=C(O)/C(=C\c1ccc2ccccc2c1)c1cccc2ccccc12,13,-0.5,-2,0.7,3.4,2,3.2,-9
COc1ccc(N(CC(=O)Nc2ccc(C)cc2C)S(=O)(=O)c2ccccc2[N+](=O)[O-])c(OC)c1,6,0.0,/,2.5,-1.9,?,1.5,?
Cc1ccccc1NC(=O)c1sc2nc3c(c(-c4ccco4)c2c1N)CCCC3,15,-1.9,-2,3.1,1.1,-2,-40,30
COc1ccc(NC(=O)Cn2nnc(-c3ccccc3NS(=O)(=O)c3ccc(OC)cc3)n2)cc1,2,-0.8,15,-3.6,1.5,-3,0.3,18
Cc1ccc(NC(=O)c2cc(C(=O)Nc3ccc(C)cc3)n(C)n2)cc1,-3,0.5,-5,2.8,2.5,-4,-12,-13
CC(=O)Nc1ccc(/C(C)=N/NC(=O)c2ccc(F)cc2)cc1,-14,0.2,-1,-14,2.6,10,/,14
Fc1cc2nc(-c3ccncc3)[nH]c2cc1F,5,1.3,0,-4.9,0.3,1,-21,1
O=C(Nc1cccc(Cl)c1)Nc1nnc(-c2ccncc2)s1,15,-0.1,100*,2.9,-1.0,-22,-10,6
COC(=O)c1ccc(-n2nnnc2SCC(=O)NCc2cccc(C(=O)O)c2)cc1,-5,-0.5,0,1.8,/,3,-3.5,-15
COC(=O)c1ccc(OC)c(CSc2nnc(COc3cccc(C)c3)o2)c1,-3,0.4,7,-7.6,-1.2,8,2.6,19
Cn1c(CNC(=O)Nc2ccccc2)nnc1SCc1ccccc1,4,0.0,-1,-6.5,3.9,6,4.7,-3
Cc1cnc(NC(=O)c2c(Cl)cnn2C)s1,-8,0.8,-1,1.7,-0.3,3,4.0,2
Cc1cc2cc(CNC(=O)c3ccco3)ccc2n1C,-4,0.9,-3,-1.5,-1.4,4,1.6,11
CC(=O)Nc1ccc(OC(=O)c2ccco2)cc1,-5,0.6,4,1.9,-0.6,25,0.6,-21
Cn1c(CNC(=O)CCNC(=O)c2cccc(F)c2)cc(=O)n(C)c1=O,-6,-0.8,-2,5.7,-0.9,-1,2.8,-21
COc1ccc(CNC(=O)C/C(C)=N/NC(=O)Cc2ccc(OC)cc2)cc1,-3,0.7,-1,-1.6,-3.3,10,/,0
CC(C)Cn1c(=S)[nH]c2cc(C(=O)NCc3ccccc3F)ccc2c1=O,8,-0.2,17,3.3,/,/,-2.3,/
O=C(COc1ccccc1F)Nc1nc(-c2ccccn2)cs1,-6,0.1,4,-1.9,/,/,/,/
CCc1cc(=O)oc2cc(C)c3c(C)coc3c12,-8,0.2,-3,1.3,0.4,12,-34,12
O=[N+]([O-])c1cc(Cl)ccc1NCCNS(=O)(=O)c1ccccc1,1,-0.9,0,2.6,3.2,31,/,17

# Reformatted with two lines to a compound: entries from further up.
# Results follow in this order: B2AR ag	Bfl-1 A1 inh	Beta cell apopt	LANA-H2B inh	RanGTP-Imp inh	Calb FLC	UCH37 inh	T cruzi repl
Fc1cc2nc(-c3ccncc3)[nH]c2cc1F
  5	1.3	0	-4.9	0.3	1	-21	1
O=C(Nc1cccc(Cl)c1)Nc1nnc(-c2ccncc2)s1
  15	-0.1	100*	2.9	-1.0	-22	-10	6
COC(=O)c1ccc(-n2nnnc2SCC(=O)NCc2cccc(C(=O)O)c2)cc1
  -5	-0.5	0	1.8	/	3	-3.5	-15
COC(=O)c1ccc(OC)c(CSc2nnc(COc3cccc(C)c3)o2)c1
  -3	0.4	7	-7.6	-1.2	8	2.6	19
Cn1c(CNC(=O)Nc2ccccc2)nnc1SCc1ccccc1
  4	0.0	-1	-6.5	3.9	6	4.7	-3

# Screening data deposited in PubChem by several laboratories.
